# Screening data deposited in PubChem BioAssay by National Center for Advancing Translational Sciences (NCATS).
# RE007 growth inh: less growth of the S. pombe RE007 Vpr strain; S. pombe RE007 Vpr strain, BacTiter-Glo ATP luminescence, 24 h; control for the full effect not named in the record; Potency, µM (titrated, usually from 92.2 µM), without a hit: top-dose activity change, negative = less growth; hit rate 0.21% among 360,000; active = well fitted falling curve with a large enough effect; inconclusive = small, poorly fitted or top-dose-only effect; inactive = no such curve, though single readings can be large or run the other way;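 note: nearly all actives have a fitted effect of over 50% in size; the assay follows cell death caused by Vpr and the record does not say whether a fall means rescue or toxicity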
#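 Fission yeast strain RE007, carrying one chromosomally integrated HIV-1 vpr copy, was seeded at OD 0.01 in PMG+AL medium with 23 nL pinned compound. After 24 h at 30 °C and 99% humidity, viability was read by BacTiter-Glo luminescence.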
# 2A StopGo: lowers the luciferase signal of an FMDV 2A StopGo reporter; human cells with a luciferase reporter of 2A StopGo recoding; control for the full effect not named in the record; hit rate 1.2% among 410,000; AID 1159524; Potency, µM (top dose mostly 57.9 µM), for the others: at the highest dose signal change, negative = less light; active = well fitted falling curve with a large enough effect; inconclusive = small, poorly fitted or top-dose-only effect; inactive = no such curve, though single readings can be large or run the other way; tested in HEK293T cells; note: nearly all actives have a fitted effect of over 45% in size; luciferase light after 4 h
# The depositor's hits bear a star; ? = inconclusive; [ ] = dose if it differs, or a comment. % is set by controls: 0 for no effect and ±100 for the full control effect; potency is the fitted concentration of half-maximal effect. An excerpt; the hit share may differ from the screen's.
No.	SMILES	RE007 growth inh	2A StopGo
1	CCc1nc2ccc(C(=O)Nc3ccc4c(c3)OCC(=O)N4)cn2c1N(C)C(=O)C1CCCCC1	-14.3%[18.4 µM]	?
2	CCCC(=O)N1CCC1(C)C(=O)Nc1cccc(F)c1 (stereo not drawn)	14.9%	-9.5%
3	OC[C@H]1OC(O)C[C@@H](O)[C@@H]1O (stereo partly drawn)	10.1%[18.4 µM]	-21.3%
4	COc1cc2c(cc1OC)C(=O)C(Br)CC2 (stereo not drawn)	-10.9%	?
5	O=[N+]([O-])c1cc(-c2csc(NCCc3nc4cc(Cl)c(N5CCCCC5)cc4n3CCCO)n2)ccc1Cl	1.0%	-16.3%
6	C[C@H](CO)N1C[C@H](C)[C@@H](CN(C)S(=O)(=O)c2ccccc2C#N)OCc2cn(nn2)CCCC1=O	6.9%	-9.3%
7	Nc1c(-c2ccccc2)nc2ncccn12	-4.7%	-10.5%
8	COc1ccc(CCC(=O)N2c3ccccc3N=C(c3ccc(C(F)(F)F)cc3)C2C(=O)NC(C)(C)C)cc1 (stereo not drawn)	-5.3%	7.8%
9	CN(C(=O)c1ccc(NC(=O)Cc2ccc(NC(=O)C3CCN(C(=O)C4CCCC4)CC3)cc2)cc1)C1CCCC1	-28.6%	-22.8%
10	O=[N+]([O-])c1ccccc1NS(=O)(=O)c1ccccc1	-14.7%	-16.4%
11	CC(=O)N1CCc2c(sc(NC(=O)c3ccc([N+](=O)[O-])o3)c2C(N)=O)C1	-10.9%	-2.0%
12	COC(=O)c1ccc(CNC(=O)c2cc(S(=O)(=O)NCc3ccccc3)ccc2C)cc1	-8.0%	-14.6%
13	COc1ccc(CN2CCC[C@]3(N[C@H](c4ccccc4)[C@@H]4C(=O)N(Cc5ccccc5)C(=O)[C@@H]43)C2=O)cc1	4.3%	-21.1%
14	Cc1cccc(C)c1Cn1c(C)c(C(=O)NCCC#N)sc1=O	-2.5%[18.4 µM]	-12.3%
15	C[C@@H]1CN([C@@H](C)CO)C(=O)CCCn2nncc2CO[C@@H]1CN(C)C(=O)Nc1ccc(-c2cccs2)cc1	-24.7%	-19.7%
16	OCCN1CCN(CC/C=C2/c3ccccc3Sc3ccc(Cl)cc32)CC1	19.2%	-2.6%
17	Cc1noc(C)c1S(=O)(=O)NC(=O)C1(C)CCN1C(=O)C1(c2ccc(Cl)cc2)CC1 (stereo not drawn)	-5.6%	13.6%
18	CCc1ccc2c(c1)NC(=O)C2(C)Cc1ccc(OC(F)(F)F)cc1 (stereo not drawn)	10.0%	-21.3%
19	CCOC(=O)C1CCCN(C(=O)c2ccc3c(c2)C(C)(C)CCC3(C)C)CC1 (stereo not drawn)	-6.5%[18.4 µM]	0.0%
20	Cc1cc(C(=O)N2CCCC(C)(C(=O)NS(=O)(=O)C3CC3)C2)nn1C(C)(C)C (stereo not drawn)	6.6%	-9.9%
21	COc1cc(/C=C/C(=O)OCC(=O)N2CCc3ccccc32)cc(OC)c1OC	7.0%	-20.7%
22	Nc1ncnc2c1ncn2[C@@H]1O[C@H](C(=O)NCCc2ccc(F)cc2)[C@@H](O)[C@H]1O	2.5%	-31.0%
23	COc1ccc(Cl)cc1-c1cc(C(=O)NCc2ccc(C(F)(F)F)cc2)[nH]n1	6.0%	-22.3%
24	COC(=O)C1=C(c2ccccc2)C[C@@H]2CC[C@H]1N2C(=O)NCCS(C)=O (stereo partly drawn)	0.4%	-8.0%
25	COCC(C)NC(=O)C1CC(=O)N(CCc2ccc(F)cc2)C1 (stereo not drawn)	14.2%	-16.1%
26	c1ccc(-c2cc3nc(NCc4ccc5c(c4)OCO5)ccn3n2)cc1	4.5%	0.0%
27	CCCS(=O)(=O)NC(=O)C1(C)CCCN(C(=O)c2cc(OC)ccc2Br)C1 (stereo not drawn)	13.7%	-18.1%
28	COC(C[C@@H](O)C[C@@H](O)[C@H](C)OCc1ccccc1)OC	-0.3%	1.1%
29	O=NN(C(=O)NC1CCC(C(=O)O)CC1)C1CCC(C(=O)O)CC1 (stereo not drawn)	-1.5%	2.2%
30	O=C(c1ccc(N2C(=O)CCC2=O)cc1)N1CCCSC1=Nc1ccccc1	-9.2%	-1.5%
31	FC(F)(F)c1ccccc1C1=CC(c2ccccc2)n2ncnc2N1 (stereo not drawn)	-3.9%	-6.6%
32	N#CCCN(C(=O)COC(=O)C1CCN(S(=O)(=O)c2ccccc2C(F)(F)F)CC1)c1ccccc1	-8.5%	-13.4%
33	O=S(=O)(Nc1ccccc1Br)c1cccc2cccnc12	1.2%	9.0%
34	OC(c1ccccc1)c1ncc(-c2cccc(C(F)(F)F)c2)[nH]1 (stereo not drawn)	-7.1%	28.7%
35	Cc1ccc(NC(=O)C2(C)CCN2C(=O)Cc2ccccc2Cl)cc1C (stereo not drawn)	-3.1%	-6.1%
36	COCCCn1cc(CN2CC(N3CCCC3)CS2(=O)=O)nn1 (stereo not drawn)	5.9%	-14.7%
37	Nc1nc2ccc(Cl)cc2cc1C(=O)NCCc1ccc(O)cc1	-17.6%	-9.2%
38	Cc1cc(C)c(S(=O)(=O)N2CCN(C(=O)CC(C)n3nc(C)nc3C)CC2)c(C)c1 (stereo not drawn)	0.5%	-21.5%
39	CC(C)(C)NC(=O)C(c1ccc(C#N)cc1)n1c(=O)c(-c2ccccc2)nc2ccccc21 (stereo not drawn)	4.7%	-21.5%
40	CC(=O)Oc1ccccc1Cn1c(C)c(C(=O)NCc2ccccc2C(F)(F)F)sc1=O	1.4%[18.4 µM]	-8.6%

# Next part; the last two above are carried over.
No.	SMILES	RE007 growth inh	2A StopGo
39	CC(C)(C)NC(=O)C(c1ccc(C#N)cc1)n1c(=O)c(-c2ccccc2)nc2ccccc21 (stereo not drawn)	4.7%	-21.5%
40	CC(=O)Oc1ccccc1Cn1c(C)c(C(=O)NCc2ccccc2C(F)(F)F)sc1=O	1.4%[18.4 µM]	-8.6%
41	CC(=O)Nc1ccc(S(=O)(=O)NCCC(=O)NCc2ccco2)cc1	-2.6%	-2.9%
42	CC1(C(=O)NS(=O)(=O)c2ccc(C#N)cc2)CCN1C(=O)c1ccccc1CCc1ccccc1 (stereo not drawn)	-14.8%[18.4 µM]	-1.5%
43	Cc1ccc(C(=O)NC(=S)c2c(C)cc3ccccn23)cc1	-16.5%	28.3%
44	Cc1noc(C)c1S(=O)(=O)N(C)C[C@@H]1OCc2cn(nn2)CCCC(=O)N([C@@H](C)CO)C[C@H]1C	-0.6%	1.6%
45	Cc1nc2cc3c(=O)n(C)cnc3cc2n1Cc1ccccc1	-18.7%	19.1%
46	COc1ccccc1CNS(=O)(=O)c1c(C)cc(C)cc1C	-10.9%	20.4%
47	COC(=O)C1=CN(c2ccc(N3CCOCC3)cc2)C(N)=C(C#N)C1c1cccc(OC)c1OC (stereo not drawn)	5.1%	-12.5%
48	C=CCN1C=C(C(C)=O)C(=O)CC1	0.4%	-12.5%
49	COCCCN(C(=O)Cc1ccc(S(=O)(=O)N2CCOCC2)s1)c1c(N)n(Cc2ccccc2)c(=O)[nH]c1=O	-7.4%	-10.3%
50	Cc1noc(C)c1C(=O)OCC(=O)NC(=O)c1ccc(C(C)(C)C)cc1	-3.9%	0.0%
51	CC1(c2nnc(-c3cccc(Cl)c3)o2)CC(c2ccc(F)cc2)=NO1 (stereo not drawn)	31.3%	36.7%[activator]
52	NC(c1ccccc1)c1csc(NC(=O)NCCc2ccccc2)n1 (stereo not drawn)	6.1%[18.4 µM]	0.1%
53	Brc1cccc(-c2nc3c4ccccc4ccn3c2CC2CCCCC2)c1	7.3%	-7.5%
54	O=C(NC1CCCCC1)C(c1ccc(C(F)(F)F)cc1)n1c(=O)c(-c2ccccc2)nc2ccccc21 (stereo not drawn)	-3.2%	-9.2%
55	CC(C)C[C@@H](CN)NC(=O)c1nc[nH]c1C(=O)N[C@@H](Cc1c[nH]c2ccccc12)C(=O)CNC[C@H](C)NC(=O)c1nc[nH]c1C(=O)N[C@@H](C)C(=O)O	0.4%	-22.4%
56	CC(=O)Nc1cccc(-c2ccnc3c2CC(C(=O)NCCc2ccccc2)O3)c1 (stereo not drawn)	4.7%	?
57	CN(CCO)C(=O)c1nc[nH]c1C(=O)N1CCN(C(=O)OC(C)(C)C)CC1	3.6%	0.0%
58	CCCS(=O)(=O)NC(=O)C1(C)CCN(C(=O)COc2ccccc2)C1 (stereo not drawn)	-14.4%	-12.5%
59	O=S1(=O)CC(N2CCN(CCO)CC2)CN1C1CCCCC1 (stereo not drawn)	1.4%	-14.4%
60	CCCc1nc2ccc(Cl)cn2c1Cc1cccc(Cl)c1	-19.1%	9.4%
61	CCCS(=O)(=O)NC(=O)C1(C)CCN(C(=O)c2cccc(OC(F)(F)F)c2)C1 (stereo not drawn)	3.4%	-6.2%
62	CC(=O)NC(c1cccc(F)c1)c1nc(/C=C/c2ccccc2)cs1 (stereo not drawn)	23.7%	-6.1%
63	COc1ccc(C(CC(=O)c2ccc3c(c2)OCO3)C(=O)O)cc1OC (stereo not drawn)	-4.3%	-8.3%
64	O=C(NCC(F)(F)F)c1cc2c(c(-c3cccc(-c4ccccc4F)c3)n1)[C@H](CCO)N(C(=O)CC1CC1)C2	2.7%	-22.0%
65	CCCCCNC(=O)C1C(=O)Nc2ccccc2C(=O)N1c1ccc(OC)cc1 (stereo not drawn)	-1.2%	3.7%
66	CN(C)C(=O)c1cccc(-c2cnc3c(NC=O)cc(-c4ccccc4N(C)C)cn23)c1	-16.2%	?
67	COc1cccc(NC(=O)CN(C)C(=O)c2cc(S(=O)(=O)Nc3ccccc3OC)ccc2C)c1	5.4%	20.0%
68	O=C(NC1CCCCC1)C(c1ccccc1F)n1c(=O)c(-c2cc3ccccc3[nH]2)nc2ccccc21 (stereo not drawn)	-1.1%	-4.0%
69	Cc1ccc(OCC(=O)OCC(=O)NC2CCCCCC2)cc1C	2.5%	-13.4%
70	C[C@@H]1CN([C@H](C)CO)C(=O)CCCn2nncc2CO[C@H]1CN(C)Cc1ccc(Cl)c(Cl)c1	?	-22.6%
71	CN1C[C@@H]2[C@@H]3C(=O)N(C)C(=O)[C@@H]3[C@](C)(C1=O)N2C(=O)c1ccc(F)cc1	23.7%	-16.0%
72	O=C(OCc1cn([C@H]2CN(CC3CCCCC3)[C@@H](c3ccccc3)C[C@@H]2O)nn1)c1ccccc1	14.5%	0.0%
73	CCOC(=O)C1(C)CCCN(C(=O)c2c(F)cccc2F)C1 (stereo not drawn)	7.6%	-1.1%
74	CC1=C(N2CCOCC2)CCC1=O	1.3%	-8.0%
75	O=[N+]([O-])c1cccc(CON=Cc2ccccc2O)c1	-5.9%	47.1%[activator]
76	COc1ccc2nc3n(c(=O)c2c1)-c1ncccc1C(=O)NC3Cc1ccccc1 (stereo not drawn)	-18.7%	-17.3%
77	CC1OC(C(C)(C)C)CC2=C1C(=O)OC(C)(C)O2 (stereo not drawn)	1.8%	-14.0%
78	CCOC(=O)c1c(C)[nH]c(/C(C)=N/NC(=O)c2cccnc2)c1C	2.0%	24.5%
79	Cc1nnc(NC(=O)CCN2C(=O)C3CC=CCC3C2=O)s1 (stereo not drawn)	-1.5%	-17.0%
80	CN(C(=O)c1ccc(NC(=O)Cc2cccc(NC(=O)C3CCCN(C(=O)C4CCCC4)C3)c2)cc1)C1CC1 (stereo not drawn)	-9.3%	14.8%
81	COc1ccc(C(O)Cc2nccn2C)cc1 (stereo not drawn)	4.8%	-12.5%
82	CCOC(=O)C1=CCN(S(=O)(=O)c2ccc(C)cc2)C1c1cccc(C)c1 (stereo not drawn)	3.5%	?
83	Cc1ccc(S(=O)(=O)NC(=O)C2(C)CCN2C(=O)COc2ccc(Cl)cc2)nc1 (stereo not drawn)	25.8%	-7.3%
84	CC(=O)c1ccc(OC2(C)CCN(Cc3cccn3-c3nccs3)C2)cc1 (stereo not drawn)	-20.2%	-24.6%
85	CC(=O)c1cccc(-c2ccnc3c2CC(C(=O)Nc2ccccc2)O3)c1 (stereo not drawn)	24.1%[18.4 µM]	?
86	c1ccc(CCCNCCCn2cnc3c(OCc4ccccc4)ncnc32)cc1	8.1%	0.0%
87	C=CCNc1ncnc2c1ncn2[C@H]1CN(Cc2ccco2)C[C@@H](CO)O1	13.5%	3.7%
88	CCOC(=O)C1=C[C@@H](C(C)C)N(S(=O)(=O)c2ccc(C)cc2)[C@H]1c1ccc(C(F)(F)F)cc1	2.4%	?
89	COc1cc(OC)nc(Nc2nc(C(N)c3ccccc3)cs2)n1 (stereo not drawn)	1.0%	-20.2%
90	O=C(NC1CCN(Cc2ccccc2)CC1)c1ccc(CS(=O)c2ccccc2Cl)o1 (stereo not drawn)	17.3%	?
91	Cc1ccc(S(=O)(=O)N2CCN(C(=O)COC(=O)c3ccccc3OC(F)F)CC2)c(C)c1	2.6%	-21.6%
92	Nc1sc(Cc2ccccc2)cc1C(=O)NC1CCCCC1	0.4%	21.7%
93	CC(C)(C)NC(=O)C1c2ccccc2OCC(=O)N1C1CC1 (stereo not drawn)	16.4%	-6.1%
94	C[C@@H]1CN([C@H](C)CO)C(=O)CCCn2nncc2CO[C@@H]1CN(C)C(=O)c1ccccc1	14.9%	-4.0%
95	OC(c1ccccc1)(c1ccccc1)C1CCN(CCCOc2cccc(OC(F)(F)F)c2)CC1	-4.9%	?
96	CN(C)c1ccc(-c2ccnc3c2CC(C)(C(=O)NCC2CCOCC2)O3)cc1 (stereo not drawn)	-4.1%[18.4 µM]	-16.0%
97	O=C(c1ccc(Cl)c(Cl)c1)N1CCC(=O)N([C@H](COCc2ccccc2)Cc2ccccc2)CC1	3.8%	-23.0%
